# Sa RN4220 lethal: S. aureus RN4220 growth inhibition; OD600, 16 h; 0.33% of 330,000 active; inhibition, % (test concentration not listed); AID 1259311;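 active = z-score of -3 or lower and OD600 up to 0.18 on both plates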;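 note: plate controls were untreated cells for no effect and reference antibiotic for full effect; stock transfer was 100 nL into about 80 µL; one replicate is shown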
# BJeLR viability: BJeLR cell viability loss. inhibition, % (concentration not given with the values). BJeLR (HRASV12) viability, CellTiter-Glo ATP luminescence, 48 h; reference of the scale not given here. AID 1554. 0.17% of 300,000 active;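 active = replicate mean above 50%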;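 note: 50 nL library stock added to about 25 µL; numbers are from one replicate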
# Autofluor counter: flagged as autofluorescent in microsphere protease counterscreen. AID 624483. compound autofluorescence counterscreen, microsphere flow cytometry; active compounds read high. 3.1% of 360,000 active. fluorescence intensity (concentration not given with the values);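 active = at least 3 SD above the mean of all compounds, about 16000 in these data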;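 note: 100 nL of 1 mM stock went into each well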
# Mtb hypoxia rep: reduces hypoxia-regulated biosensor signal in M. tuberculosis; M. tuberculosis hypoxia-regulated fluorescent reporter, fluorescence; fluorescence inhibition, % (concentration not given with the values); 0.1% of 300,000 active;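 active = 35 to 45% if threefold the growth effect, above 45% if 1.5-fold the growth effect; inactive = the rest, general growth blockers included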;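 note: wells of about 50 µL received 100 nL stock; 0% = vehicle wells and 100% = reference inhibitor wells; whole bacteria with a GFP reporter of the hypoxia response; strong numbers were not always called active; many hits fall short of the cut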
# PrP 5UTR inh: inhibition of PrP 5' UTR reporter expression; cell-based PrP 5' UTR mRNA reporter, plate reader; 0.35% of 340,000 active; AID 488862; inhibition, % (concentration not given with the values);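 active = every replicate at 50% or more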;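 note: 0 = median of the neutral control wells; tested in H4 reporter cells; numbers are from one replicate; inactives centre near -14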
# ugtP null kill: growth inhibition of S. aureus ugtP deletion strain. S. aureus RN4220 ugtP deletion, OD600 growth, 16 h; some inactives read as strong as hits. growth inhibition, % (concentration not given with the values). 0.54% of 330,000 active. AID 1259309;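 active = z-score under -3 and OD600 up to 0.15 on both plates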;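 note: plate controls were untreated wells for no effect and antibiotic for full effect; wells of about 80 µL received 100 nL stock; the first replicate is given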
# Mtb hypoxia rep growth: also measured in Mtb hypoxia rep; calls as there; growth inhibition, %; measured here: M. tuberculosis growth (absorbance);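 0% = vehicle and 100% = reference antibiotic; read after six days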
# The depositor's hits bear a star; · = not tested or not shown.
SMILES,Sa RN4220 lethal,BJeLR viability,Autofluor counter,Mtb hypoxia rep,Mtb hypoxia rep growth,PrP 5UTR inh,ugtP null kill
COc1ccc(CC(=O)NCCc2ccc(S(N)(=O)=O)cc2)cc1,4.2,-8,19944*,-3,6,-3,-9
Cc1cc(N2CCN(S(=O)(=O)c3ccc(Cl)cc3)CC2)c2ccccc2n1,2.6,6,5882,3,4,-22,11
O=C1Nc2ccccc2N=C(c2ccccc2)C1Br (stereo not drawn),7.0,4,5258,8,-5,-24,13
CCc1nc(SCC(=O)NCc2ccccc2)c2c(=O)n(C)c(=O)n(C)c2n1,-7.8,1,5847,-1,5,-23,-8
CS(=O)(=O)NNP(=O)(NNS(C)(=O)=O)NC(=O)c1ccc(Br)cc1,2.6,-2,5815,1,-2,-3,3
COc1cc(C(C)=O)ccc1OCC(=O)OCC(=O)c1cc(C)n(CC2CCCO2)c1C (stereo not drawn),4.2,·,3947,9,4,-6,1
Cc1cc(-c2ccc(C)c(S(=O)(=O)N3CCN(C(=O)c4ccco4)CC3)c2)on1,·,7,5218,·,·,-18,·
COc1ccc(-c2c3c(nc4sc(C(=O)Nc5ccccc5)c(N)c24)CCC3)cc1,-0.9,4,15948,2,2,-16,-13
CC(=O)c1cnc2scnn2c1=O,0.8,-9,2619,12,-10,-18,-3
COc1ccc(-c2[nH]ncc2[C@@H]2C[C@H]3CN(Cc4ccccc4C)C(=O)[C@]34CCCN24)cc1,7.0,-2,2811,-9,4,-1,-2
COCCNC(=O)C(c1cccs1)N(C(=O)Cn1nnc2ccccc21)c1cccc(C(C)=O)c1 (stereo not drawn),-1.0,-11,4658,·,·,-15,3
O=C(CSc1nncs1)NC(=O)NCc1ccco1,-0.3,9,4313,4,8,-11,8
COc1ccccc1C(=O)NCCC(=O)N1CCN(S(=O)(=O)c2ccc(Cl)cc2)CC1,1.8,·,5372,-5,-7,-24,2
Nc1ccc2c(c1)Cc1cc(Cl)c(Cl)cc1-2,-8.7,·,4046,-1,2,-12,-7
COc1cc(CC(=O)Nc2ccc(S(=O)(=O)Nc3ncccn3)cc2)cc(OC)c1OC,-2.2,-2,4333,3,11,-9,-8
Cc1ccc(Cl)cc1N1CCN(C(=O)CN2C(=O)c3cccc4cccc2c34)CC1,-11,27,2540,·,·,-14,6
COc1ccc(C(=O)NNS(=O)(=O)c2ccc(OC)cc2)cc1,3.2,1,3604,1,3,-19,3
NC(=O)Nc1ccc(C(=O)OCC(=O)Nc2cccc(S(=O)(=O)NC3=NCCCCC3)c2)cc1,2.8,-4,3599,5,2,2,6
CC(C)(C)n1nnnc1C(c1cccs1)N(Cc1cccnc1)Cc1ccco1 (stereo not drawn),8.0,-9,3689,8,21,-10,4
CCOc1ccc(C2=CSC3=NCCN23)cc1,3.9,-11,4158,4,16,-18,10
O=C(COC(=O)CCC(=O)c1cccs1)Nc1cccc(S(=O)(=O)N2CCOCC2)c1,-2.4,-1,4084,·,·,-4,4
CC(=NNC(=O)c1c(Cl)cnn1C)c1cccc(NC(=O)C(C)C)c1,3.0,·,·,5,7,·,6
CCOC(=O)C1=C(COC(=O)[C@H](C)NS(=O)(=O)c2ccc(NC(C)=O)cc2)NC(=O)NC1C (stereo partly drawn),5.5,·,3319,10,10,-11,6
COc1cc(C2CC(=O)Oc3c(C(CCN4CCN(c5ccccc5)CC4)c4ccc(N(C)C)cc4)c(OC)cc(OC)c32)cc(OC)c1OC (stereo not drawn),1.5,-3,4632,-19,0,-4,-14
Cc1cc(=O)n(CC(C)O)c(O)c1C#N (stereo not drawn),3.8,12,2943,-6,-2,-14,6
COc1ccc(C(=O)COC(=O)C(O)c2ccccc2)c(OC)c1 (stereo not drawn),9.3,·,·,6,6,-34,0
O=C(COC(=O)c1ccc(Cl)nc1)c1ccc2c(c1)OCCO2,8.4,2,4829,20,9,-1,1
Cn1c(CSc2ncccn2)nnc1SCC(=O)N1CCCCCC1,3.8,14,3313,-3,-5,-8,-2
CC(=O)N1CCc2cc(N=NC3=C(O)CCCC3=O)ccc21,3.8,8,3872,12,9,-62,3
O=C(Cn1ccc([N+](=O)[O-])n1)NCc1ccccc1,-0.3,10,4477,-6,6,5,10
CN(CC(=O)Nc1ccccc1F)S(=O)(=O)c1ccc2c(c1)n(C)c(=O)c(=O)n2C,2.0,-10,·,9,7,-11,8
Cc1ccc(/C=C/C(=O)Nc2cc(S(=O)(=O)N3CCCCCC3)ccc2OCC(F)(F)F)o1,1.3,-1,2335,1,11,-13,-17
O=C(NCc1ccccc1)c1ccc(Br)cc1Br,9.1,-6,2523,25,28,-9,6
Cc1ccc(C=NNc2ccc(Cl)c(C(=O)O)c2)s1,4.9,·,·,6,2,·,-5
CC1=CC(C)(C)N2C(=O)C3(SCC(=O)N3c3ccc(F)cc3)c3cc(C)cc1c32 (stereo not drawn),-7.4,-2,11134,-2,-9,2,-29

# Structures from the list above containing four or more nitrogen atoms, in the order listed:
SMILES,Sa RN4220 lethal,BJeLR viability,Autofluor counter,Mtb hypoxia rep,Mtb hypoxia rep growth,PrP 5UTR inh,ugtP null kill
CCc1nc(SCC(=O)NCc2ccccc2)c2c(=O)n(C)c(=O)n(C)c2n1,-7.8,1,5847,-1,5,-23,-8
CS(=O)(=O)NNP(=O)(NNS(C)(=O)=O)NC(=O)c1ccc(Br)cc1,2.6,-2,5815,1,-2,-3,3
COc1ccc(-c2[nH]ncc2[C@@H]2C[C@H]3CN(Cc4ccccc4C)C(=O)[C@]34CCCN24)cc1,7.0,-2,2811,-9,4,-1,-2
COCCNC(=O)C(c1cccs1)N(C(=O)Cn1nnc2ccccc21)c1cccc(C(C)=O)c1 (stereo not drawn),-1.0,-11,4658,·,·,-15,3
O=C(CSc1nncs1)NC(=O)NCc1ccco1,-0.3,9,4313,4,8,-11,8
COc1cc(CC(=O)Nc2ccc(S(=O)(=O)Nc3ncccn3)cc2)cc(OC)c1OC,-2.2,-2,4333,3,11,-9,-8
NC(=O)Nc1ccc(C(=O)OCC(=O)Nc2cccc(S(=O)(=O)NC3=NCCCCC3)c2)cc1,2.8,-4,3599,5,2,2,6
CC(C)(C)n1nnnc1C(c1cccs1)N(Cc1cccnc1)Cc1ccco1 (stereo not drawn),8.0,-9,3689,8,21,-10,4
CC(=NNC(=O)c1c(Cl)cnn1C)c1cccc(NC(=O)C(C)C)c1,3.0,·,·,5,7,·,6
CCOC(=O)C1=C(COC(=O)[C@H](C)NS(=O)(=O)c2ccc(NC(C)=O)cc2)NC(=O)NC1C (stereo partly drawn),5.5,·,3319,10,10,-11,6
Cn1c(CSc2ncccn2)nnc1SCC(=O)N1CCCCCC1,3.8,14,3313,-3,-5,-8,-2
O=C(Cn1ccc([N+](=O)[O-])n1)NCc1ccccc1,-0.3,10,4477,-6,6,5,10
CN(CC(=O)Nc1ccccc1F)S(=O)(=O)c1ccc2c(c1)n(C)c(=O)c(=O)n2C,2.0,-10,·,9,7,-11,8

# Assay outcomes deposited in PubChem BioAssay by several laboratories.
